D2 agonist – activates the human D2 dopamine receptor; DiscoveRx PathHunter D2 beta-arrestin, luminescence, 90 min; 100% = 57 uM dopamine signal; activation, % (no concentration beside the values); actives 0.084% (n = 360,000); in the data active = activation above about 40%; inconclusive = about 15% to 40%; inactive = below about 15%; note: compound concentration not given in the record; the text of the record calls up to 30% inactive
Target sequence (P14416 whole entry, looked up): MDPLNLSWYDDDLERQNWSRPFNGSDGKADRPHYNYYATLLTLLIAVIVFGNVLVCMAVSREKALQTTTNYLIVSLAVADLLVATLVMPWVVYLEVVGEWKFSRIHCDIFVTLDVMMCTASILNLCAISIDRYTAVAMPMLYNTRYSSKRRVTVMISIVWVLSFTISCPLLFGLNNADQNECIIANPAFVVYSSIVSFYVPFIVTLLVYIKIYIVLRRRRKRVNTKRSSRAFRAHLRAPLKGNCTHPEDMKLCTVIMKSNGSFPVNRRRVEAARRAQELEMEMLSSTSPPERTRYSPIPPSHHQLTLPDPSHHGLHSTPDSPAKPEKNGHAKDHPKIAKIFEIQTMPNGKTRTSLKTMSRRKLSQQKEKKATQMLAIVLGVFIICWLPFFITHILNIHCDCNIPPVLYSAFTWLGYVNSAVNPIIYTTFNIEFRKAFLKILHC
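Agonist mode: compounds alone added to overnight-plated D2 PathHunter cells for 90 min at 37 C, with 57 uM final dopamine (EC100) defining full response. Beta-arrestin recruitment detected by chemiluminescent reagent, read after 1 h at ambient temperature.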
CtBP-E1A blk – inhibitors of CtBP/E1A interaction; AlphaScreen GST-E1A/His-CtBP binding, 1536-well; stronger effect = lower value; control for the full effect not named in the record; activity change, % (no concentration beside the values); actives 0.49% (n = 340,000); AID 651724; in the data active means activity change below about -65%; inconclusive means about -30% to -65%; inactive means above about -30%; note: % is set by controls: 0 for no effect and ±100 for the full control effect; compound concentration not given in the record
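Homogeneous bead-based format: GST-tagged E1A captured on glutathione donor beads, His-tagged CtBP on nickel acceptor beads; compounds precede bead addition by 2 h at 37 °C.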
Six1-Eya2 blk – inhibitors of human Six1/Eya2 interaction | AlphaScreen GST-Six1/His-Eya2 binding, biochemical; stronger effect = lower value; control for the full effect not named in the record | activity change, % (test concentration not listed) | actives 0.56% (n = 360,000) | AID 651725; in the data active = activity change below about -65%; inconclusive = about -30% to -65%; inactive = above about -30%; note: % is set by controls: 0 for no effect and ±100 for the full control effect; compound concentration not given in the record
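Six1/Eya2 binding was read as AlphaScreen signal after compounds were pinned into GST-Six1 plus His-tagged Eya2 (5X stock 250/500 nM) in pH 8.0 Tris/NaCl/TCEP buffer, beads added, then incubated 1 h, 37 C, dark.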
gsp agonist – activates gsp, the McCune-Albright syndrome mutation; gsp mutant cells, cAMP HTRF, 30 min; control for the full effect not named in the record; Potency, µM (highest dose often 76.9 µM), for the others: at the highest dose activation (cAMP increase), usual class: activators; actives 0.13% (n = 340,000); AID 624287; active = well fitted activation curve with a large enough effect; inconclusive = small, poorly fitted or top-dose-only effect, or another doubt; inactive = no such curve, though single readings can be large or run the other way; cell line not stated here;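 note: phosphodiesterase inhibitor Ro 20-1724 added with compounds to block cAMP breakdown; potency is the fitted concentration of half-maximal effect; nearly all actives have a fitted effect of over 60% in size; about a fifth of the inactives were tested at one dose only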
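Cells stably selected in G418 were plated at 2000/well, grown 16-24 hr, then given compounds in DMSO with the PDE inhibitor […] (300 uM solution added) for 30 min at 37C; cAMP was read by HTRF.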
gsp antagonist – antagonizes gsp, the McCune-Albright syndrome mutation; gsp-mutant cells, cAMP HTRF, 30 min; control for the full effect not named in the record; Potency, µM (top dose mostly 76.9 µM), for inactives: top-dose activity change, negative = inhibition, actives largely listed as inhibitors; actives 0.4% (n = 340,000); AID 624288; active = falling curve of any shape with a large fitted effect; inconclusive = falling curve, mostly with a smaller effect; inactive = flat or rising curve; cell line not stated here;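 note: intracellular cAMP measured with PDE inhibitor Ro 20-1724 present during compound exposure; potency is the fitted concentration of half-maximal effect; % is set by controls: 0 for no effect and ±100 for the full control effect; nearly all actives have a fitted effect of over 65% in size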
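Cells, 2000/well, grown 16–24 h in DMEM 10% FBS with 0.5 mg/ml G418, then compounds plus […] (300 uM addition stock), 30 min at 37C. cAMP read by HTRF (cAMP-d2 and anti-cAMP antibody-K in lysis buffer) after 30 min RT.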
D2 potentiator – positive allosteric modulators of human D2 dopamine receptor; DiscoveRx D2 beta-arrestin cells, luminescence, 90 min; 100% = 57 uM dopamine signal; potentiation, % (concentration not given with the values); actives 0.23% (n = 360,000); active = potentiation of 50% or more; inconclusive = 30% to 50%; inactive = 30% or less;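 note: compound concentration not given in the record; tested on top of an EC20 dose of dopamine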
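PathHunter D2 cells, attached overnight at 37 deg C, received compound in DMSO plus dopamine at EC20 (50 nM final) for 90 min at 37 deg C. Beta-arrestin recruitment was read as luminescence after 1 h with detection reagent at ambient temperature.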
Numbers without * were called inactive; ? = inconclusive; / = no result given; [ ] = dose if it differs, or a comment. Random draw from the library. About 1.4% of those tested had a hit in this group.

Molecule | gsp antagonist | D2 agonist | D2 potentiator | Six1-Eya2 blk | gsp agonist | CtBP-E1A blk
O=C(CN(C(=O)CCC(=O)Nc1nccs1)c1cccc(F)c1)NCc1ccccc1 | 9% | -5.0 | -8 | 0 | -2%[15.4 µM] | 4
CCc1ccc(Nc2n[n+](-c3ccccc3)c(-c3ccc(N(CC)CC)cc3)s2)cc1 | -17% | -3.3 | -17 | -17 | / | -13
CC(=O)Nc1ccc(Nc2cc(C)nc3c(-c4ccc(Cl)cc4)c(C)nn23)cc1 | -2% | 4.2 | 8 | 8 | 0% | 4
CC(Cc1ccccc1)NC(=O)C1(c2ccccc2)CCOCC1 (stereo not drawn) | 5% | -1.6 | -9 | -1 | 13% | -9
CN(C)c1ccc(CNC(=O)C2Cc3c(-c4ccccc4Oc4ccccc4)ccnc3O2)cc1 (stereo not drawn) | / | -1.3 | -8 | -66* | / | ?
COC(=O)Nc1nc2ccc(-c3n[nH]c(=O)c4ccccc34)cc2[nH]1 | -2% | -0.5 | -7 | -7 | -34%[inhibitor] | -2
Cc1csc(NC(=O)CSc2nnc3ncccn23)n1 | 5% | -2.5 | -9 | 0 | 29% | 5
COc1ccc(CCNc2nc(-c3cccnc3)cs2)cc1OC | -28% | -0.4 | -18 | -2 | -2% | 0
CC(C)(C)c1ccc(CN2C3=NCCCN3c3ccccc32)cc1 | 4% | -3.7 | -30 | -3 | -3% | 2
CCC(CC)NC(=O)c1cc(OC)c(OC)c(OC)c1 | -13% | -2.2 | 4 | 6 | -11% | -6
CCOc1cc(C(c2c(O)nc(SC)[nH]c2=O)c2c(O)nc(SC)[nH]c2=O)ccc1O | -9% | -5.7 | -1 | 3 | -19%[15.4 µM] | 0
COc1ccc(CNc2nc(Cl)c(C#N)s2)cc1 | -15% | -2.8 | -15 | 9 | -43% | /
COc1cccc(C(=O)NC(=S)Nc2ccccc2N2CCCC2)c1 | -3% | -1.6 | -1 | ? | 0% | ?
CCOC(=O)C(O)(C1C(=O)CC(C)(C)CC1=O)C(F)(F)F (stereo not drawn) | 8% | -0.4 | -3 | 8 | -55%[inhibitor] | 7
O=C(Cn1nnc(-c2ccc(Cl)cc2)n1)NC1CC2CCC1C2 (stereo not drawn) | -11% | -1.7 | 14 | -2 | 7% | 1
O=S(=O)(NCc1ccco1)c1ccc(S(=O)(=O)N2CCCC2)cc1 | -1% | -0.2 | -10 | 7 | 11%[15.4 µM] | 12
Nc1cccc(CCc2nc3cc4ccccc4cc3[nH]2)c1 | 34%[activator] | -2.5 | 6 | 0 | 9% | -3
COc1cc(C(=O)O/N=C2\C=CC(=O)C(C)=C2)cc(OC)c1OC | -4% | 13 | 28 | -1 | 16% | -3
Cc1nn(-c2ccccc2)c2c1C(c1ccc(F)cc1)C(C#N)=C(N)O2 (stereo not drawn) | -6% | -0.4 | -15 | -7 | 0% | -3
Cc1ccc(-c2cn3nc(-c4ccccc4)c(-c4ccccc4)nc3n2)cc1 | -16% | 1.3 | -3 | -2 | 9% | 9
CCS(=O)(=O)c1ccc2oc(SCC(=O)c3c(N)n(C4CC4)c(=O)[nH]c3=O)nc2c1 | 11% | -4.2 | -4 | 0 | 12% | /
CCOc1ccc(CNc2ccc3c(c2)nc(C)n3C)cc1 | -16% | 0.6 | -33 | -13 | 15% | -10
CN(C)S(=O)(=O)c1ccc(-n2cccc2)cc1 | 0% | 4.6 | 6 | -6 | -2% | 0
CCOC(=O)c1[nH]c(C)c(C(=O)OC(C)C(=O)Nc2ncc(Cl)cc2Cl)c1C (stereo not drawn) | -10% | 0.5 | -15 | 4 | 4% | -3
COc1ccc(NC(=S)N2CCC(Cc3ccccc3)CC2)cc1OC | ? | 0.7 | 4 | -21 | 12% | -15
COc1ccc(NC(=O)CN2C(=O)COc3ccccc32)cc1OC | 21% | 2.8 | -2 | 17 | 0%[15.4 µM] | 11
O=C(NCCc1c[nH]c2ccccc12)C(=O)NCC1OCCCN1S(=O)(=O)c1ccc(F)cc1 (stereo not drawn) | -16% | 5.7 | 4 | -10 | -7% | -23
O=C(CSc1nc2cc([N+](=O)[O-])ccc2n1-c1ccc(F)cc1)NC1CCS(=O)(=O)C1 (stereo not drawn) | -16% | -13 | -20 | -4 | -2% | 0
O=S(=O)(CC(c1ccccc1)N1CCCCC1)c1ccc(Cl)cc1 (stereo not drawn) | -1% | -0.2 | -1 | 3 | ? | 5
CC1CCCCC12NC(=O)N(CC(=O)OCC(=O)c1ccc(OC(F)F)cc1OC(F)F)C2=O (stereo not drawn) | 5% | -1.6 | -3 | 3 | 13%[15.4 µM] | 8

Further entries follow.
Molecule | gsp antagonist | D2 agonist | D2 potentiator | Six1-Eya2 blk | gsp agonist | CtBP-E1A blk
N#CCCCSc1nnc(CSc2nc3ccccc3s2)n1-c1ccccc1 | ? | -0.7 | 1 | -3 | 7% | 0
CCCCn1nnnc1SCC(=O)Nc1cccc(C)n1 | 2% | 0.7 | 7 | 3 | 0% | 5
O=C(NC1(C(F)(F)F)NC(=O)N(Cc2cccnc2)C1=O)c1ccc(F)cc1 (stereo not drawn) | 9% | 1.8 | -4 | 2 | 4% | 4
O=C(O)c1cc(N/N=C/c2cccnc2)ccc1Cl | 9% | -1.1 | -11 | -4 | -21% | /
Cn1cnc(S(=O)(=O)N2CCN(C(c3ccccc3)c3ccccc3)CC2)c1 | 4% | -8.2 | -3 | -2 | 17% | -13
COCCCNC(=O)Cn1cc(C(=O)c2cccs2)c2ccccc21 | -9% | -2.9 | 12 | -12 | 12% | -3
O=C(Nc1ccc(F)cc1)c1ccc2c(=O)n(CC3CCCO3)c(=S)[nH]c2c1 (stereo not drawn) | ? | 4.6 | 2 | 12 | ? | 37
Cc1nc2cc(NS(=O)(=O)c3c(C)c(C)cc(C)c3C)ccc2s1 | ? | 1.2 | -11 | -2 | -18% | -4
CC(=O)NCc1ccc(C(=O)COC(=O)COc2ccccc2)s1 | 15% | 8.6 | 0 | -1 | 9% | 6
CCn1c(Cc2cccs2)nnc1SCC(=O)c1ccc(C)cc1 | 7% | -3.6 | -1 | 2 | -8% | -1
CCn1c2nc(SCCN3CCOCC3)nnc2c2cc(C)cc(C)c21 | -10% | -3.9 | -18 | -29 | 1% | ?
CCOC(=O)c1c(CN(C)C)n(-c2ccccc2)c2cc(Br)c(O)cc12 | -19% | -5.1 | -22 | -4 | -2%[15.4 µM] | 0
CSc1sc(C)cc1C1C(C#N)=C(N)N(c2cccnc2)C2=C1C(=O)CC(C)(C)C2 (stereo not drawn) | ? | -3.6 | -5 | -7 | ? | -5
O=[N+]([O-])c1cccc(S(=O)(=O)Nc2nc3ccccc3nc2Nc2cccc(S(=O)(=O)N3CCCCC3)c2)c1 | 18µM* | -1.2 | -1 | 2 | -16% | 15
COc1ccc(-n2nc([N+](=O)[O-])c(=NCc3ccco3)n2O)cc1 | 0% | ? | ? | 6 | -10% | 3
CS(=O)(=O)c1ccc(C(=O)N2CCN(C(=O)c3ccco3)CC2)cc1 | 14% | -1.1 | -8 | 0 | -18% | 1
O=S(=O)(NCCc1ccccc1)c1ccccc1 | 1% | 0.3 | -10 | 5 | 5% | 4
CCCCNC(=O)C1(C)CCN1C(=O)c1ccc(OC)c(F)c1 (stereo not drawn) | / | -5.0 | -1 | -8 | / | 3
COc1ccc(COC(=O)N/C=C/c2ccco2)cc1 | -3% | -2.7 | -9 | -4 | ? | 2
CCc1cc(C(=O)OCC(=O)N2CCC(c3ccccc3)=N2)sc1C | -6% | -5.2 | -8 | -19 | ? | -2
O=[N+]([O-])c1ccc(NCCCNS(=O)(=O)c2ccccc2)cc1 | -24% | 10 | -5 | -4 | -6%[15.4 µM] | /
O=C(CCNC(=O)c1ccc(Cl)cc1)Nc1cccc(S(=O)(=O)N2CCCCCC2)c1 | -17% | -0.3 | -3 | -1 | -14%[15.4 µM] | -14
O=C(c1ccc(F)cc1)N(NC(=O)C(O)(c1ccccc1)c1ccccc1)c1ccccc1 | -13% | 3.8 | 0 | -1 | 1%[15.4 µM] | 8
COc1ccccc1CNC(=O)CN(C)CC(=O)Nc1ccc(F)c(F)c1F | 0% | 4.7 | -1 | 2 | ? | 0
NC(=O)c1cccc(Nc2nc(C(N)CCc3ccccc3)cs2)n1 (stereo not drawn) | / | -6.5 | -18 | -23 | / | -15
CCOc1ccc(S(=O)(=O)N(C)c2ccc(OCC(=O)Nc3ccc4[nH]c(=O)[nH]c4c3)cc2)cc1 | 3% | 1.5 | -13 | -7 | 3% | 2
Cc1ccc(S(=O)(=O)NC2(C(F)(F)F)C(=O)Nc3c2c(=O)[nH]c(=O)n3-c2ccccc2)cc1 (stereo not drawn) | 9% | 0.3 | -13 | 7 | -4%[15.4 µM] | 13
Cc1onc(-c2ccccc2)c1CNC(=O)Nc1cccc(Cl)c1 | -24% | 1.9 | 0 | -5 | 18% | -5
CC1=C(C(=O)N(C)C)C(c2ccccc2OC(F)F)NC(=O)N1 (stereo not drawn) | 5% | -3.9 | -3 | 12 | -23%[15.4 µM] | 1
O=C(c1ccco1)N1CCN(c2ccc([N+](=O)[O-])c(N3CCOCC3)c2)CC1 | -18% | -2.0 | -5 | -5 | 12%[15.4 µM] | 15

Entries above shown as hits in Six1-Eya2 blk:
Molecule | gsp antagonist | D2 agonist | D2 potentiator | Six1-Eya2 blk | gsp agonist | CtBP-E1A blk
CN(C)c1ccc(CNC(=O)C2Cc3c(-c4ccccc4Oc4ccccc4)ccnc3O2)cc1 (stereo not drawn) | / | -1.3 | -8 | -66* | / | ?

(more compounds)
Molecule | gsp antagonist | D2 agonist | D2 potentiator | Six1-Eya2 blk | gsp agonist | CtBP-E1A blk
NC(=O)c1nsc(C(=O)N(CC(=O)NC2CCCCC2)Cc2ccc(F)cc2)c1N | 6% | -4.4 | -3 | 7 | 22% | -1
COc1cc2ccccc2cc1C(=O)N/N=C/c1ccc2c(c1)OCO2 | 18% | 2.7 | -16 | -7 | 17% | -5
COc1ccc(Nc2nc3cc(C)ccc3cc2C#N)c(OC)c1 | -16% | -0.6 | -2 | 27 | ? | 12
CC(C)[C@H](NC(=O)OCc1ccccc1)C(=O)OCc1cc(=O)oc2cc(O)ccc12 | ? | 1.5 | 3 | -1 | -11% | 5

An excerpt of the results above, as a working copy:
Molecule | gsp antagonist | D2 agonist | D2 potentiator | Six1-Eya2 blk | gsp agonist | CtBP-E1A blk
O=C(c1ccco1)N1CCN(c2ccc([N+](=O)[O-])c(N3CCOCC3)c2)CC1 | -18% | -2.0 | -5 | -5 | 12%[15.4 µM] | 15
NC(=O)c1nsc(C(=O)N(CC(=O)NC2CCCCC2)Cc2ccc(F)cc2)c1N | 6% | -4.4 | -3 | 7 | 22% | -1

High-throughput results: PubChem BioAssay, National Center for Advancing Translational Sciences (NCATS)
